From PubChem BioAssay
MT1-MMP promoter: inhibitors of MT1-MMP promoter transcription, cell-based, luciferase reporter, luminescence (AID 618); calls from a first round at 10 µM; hits with a dose series show EC50 in µM; MT1-MMP promoter luciferase reporter cells, luminescence; 87,000 tested, 0.62% active;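 active = over half of the reporter light lost at 10 µM or EC50 under 50 µM; inactive = the rest and hits that failed the dose series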;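 also: actives suppress MT1-MMP promoter-driven transcription so potencies describe inhibitors; HT1080 fibrosarcoma cells; overnight exposure; toxic or luciferase-blocking compounds were not removed from the actives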
WNV protease inh: inhibitors of West Nile virus NS2B-NS3 protease. P06935. WNV NS2B-NS3 protease, fluorogenic substrate Ex360/Em465; stronger effect = lower value. z-score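 (tested at a level between 10 and 100 µM)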. 65,000 tested, 0.18% active;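 active = z-score at -3 or under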;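 also: score is relative to mean and spread of the compound wells of a plate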
Target sequence (P06935 1371-1501 limits assumed): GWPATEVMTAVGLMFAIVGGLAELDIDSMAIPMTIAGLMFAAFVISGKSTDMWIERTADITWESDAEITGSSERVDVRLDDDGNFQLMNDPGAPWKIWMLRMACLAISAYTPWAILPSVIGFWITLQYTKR
Target sequence (P06935 1502-1679 limits assumed): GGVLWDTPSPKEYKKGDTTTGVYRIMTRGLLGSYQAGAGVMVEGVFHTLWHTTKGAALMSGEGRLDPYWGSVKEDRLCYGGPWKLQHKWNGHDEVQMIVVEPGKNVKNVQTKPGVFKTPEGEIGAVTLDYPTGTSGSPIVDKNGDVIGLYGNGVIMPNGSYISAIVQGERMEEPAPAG
Hsc70: small molecules displacing fluorescent ligand from Hsc70 – biochemical, fluorescence polarization, primary screen (AID 568). Hsc70 fluorescence polarization, probe displacement; higher % means a stronger effect; strong numbers were not always called active. displacement, % at 20 µM, or IC50 in µM where a hit was titrated. 83,000 tested, under 10 active;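 active = displacement above 50% without optical interference and an IC50 on retest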;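 also: ATPase domain with a fluorescein-tagged ATP probe; 0% = vehicle and 100% = excess ADP; read after one hour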
* marks the source's active call; other numbers are inactive results; i = inactive; / = not tested or not shown. Only part of the results is shown, so the mix of outcomes need not match the whole.

No. | canonical_smiles | MT1-MMP promoter | WNV protease inh | Hsc70
1 | CC1CCCCN1C(=O)CSc1nnc(-c2c[nH]c3ccccc23)o1 (stereo unspecified) | i | -0.15 | 0.2%
2 | CCOc1ccc2nc(NC(=O)CSc3ccccc3)sc2c1 | i | / | 0.7%
3 | CNC(=O)c1ccc2nc(NC(C)=O)sc2c1 | i | -0.4 | -0.6%
4 | CC(C)(CNS(=O)(=O)c1ccc(Cl)cc1)N1CCCCC1 | i | -0.16 | -3.4%
5 | CCOC(=O)C1CCCN(c2c(N3CCc4ccccc4C3)c(=O)c2=O)C1 (stereo unspecified) | i | -0.15 | 4.5%
6 | COc1ccc(OC)c(C(=O)CSc2nnc(-c3cccnc3)n2C)c1 | i | 0.45 | -3.8%
7 | CCCCP(=O)(c1ccccn1)c1ccccn1 | i | 1.7 | 5.9%
8 | COc1ccc(OC)c(Nc2cc(C(=O)NCCCN3CCOCC3)c3ccccc3n2)c1 | i | -0.21 | 2.0%
9 | O=C(NCCc1ccc(F)cc1)N1CCOCC1 | i | -0.38 | -3.4%
10 | COc1cc(NC(=O)C2CCCN2C(=O)OCc2ccccc2)cc(OC)c1 (stereo unspecified) | i | -0.18 | 0.9%
11 | Cc1cc(NC(=O)Cn2nc(-c3ccccc3F)ccc2=O)ccc1-n1cnnn1 | i | 0.59 | -0.2%
12 | Cc1nc2cc(N3CCOCC3)c(NC(=O)C3CC3)cc2c(=O)n1Cc1ccccc1 | i | -0.33 | -11%
13 | O=C(OCc1nc2ccc(Cl)cc2n1CCO)c1ccc2c(c1)OCO2 | i | 1.2 | -14%
14 | CC(C)c1[nH]c(=O)c(C#N)c2c1CSC(C)(C)C2 | i | -0.23 | -4.5%
15 | CCOc1ccccc1NC(=O)Cn1nnc(C(=O)Nc2ccc(C)cc2)c1N | i | -1.2 | 0.8%
16 | COc1ccc(C(C(=O)NC2CCCCC2)N(C(=O)c2ccco2)c2ccc(-n3cnnn3)c(C)c2)cc1 (stereo unspecified) | i | / | -1.8%
17 | CCC(Sc1ccccc1C(=O)O)C(=O)O (stereo unspecified) | i | / | -0.4%
18 | Cc1nc(SCC(=O)N2CCN(C(=O)c3ccco3)CC2)c2c(C)c(C)sc2n1 | i | 0.58 | 0.0%
19 | Cc1ccc(-c2noc(CN(C(=O)CCN3C(=O)c4ccccc4C3=O)C(C)C)n2)cc1 | i | 0.01 | 0.8%
20 | CC(=O)N1CCc2c(sc(NC(=O)c3ccc4c(c3)OCCO4)c2C#N)C1 | i | -0.68 | -3.2%
21 | CCOC(=O)N1CCN(Cc2oc(CO)cc(=O)c2O)CC1 | i | 1.7 | 2.0%
22 | Cc1c(C(=O)O)oc2ccc(S(=O)(=O)N(CC(C)C)CC(C)C)cc12 | i | 1.3 | 1.9%
23 | Clc1ccc(-c2onc3c2CCCC3)cc1 | i | / | 1.6%
24 | Cc1cc2c(cc1C)-c1nnc(-c3ccc4ccccc4n3)n1C(C)(C)C2 | i | / | -1.2%
25 | Cc1ccc(O)c(-c2cc(-c3ccccc3C)[nH]n2)c1 | i | -0.88 | 0.8%
26 | CCc1nnc(NC(=O)C(NS(=O)(=O)c2ccc3c(c2)OCCO3)C(C)C)s1 (stereo unspecified) | i | -1.2 | -1.9%
27 | COc1ccc(C2C(C(=O)Nc3ccc4c(c3)OCCO4)c3ccccc3C(=O)N2C)cc1 (stereo unspecified) | i | / | -5.0%
28 | CNC(=O)CC(C(=O)O)c1ccc(OCC(C)C)cc1 (stereo unspecified) | i | 0.1 | 4.7%
29 | O=C(Nc1ccccc1)c1ccc(S(=O)(=O)N2CCCCC2)cc1 | i | -0.83 | -3.9%
30 | CCCn1c(=O)c2ccccc2n2c(SCC(=O)NCc3cccs3)nnc12 | i | 0.73 | 4.0%
31 | O=C(c1cccc(F)c1)n1nnc2ccccc21 | i | -0.32 | 4.8%
32 | NC(=O)c1ccc([N+](=O)[O-])cc1SCc1ccccc1 | i | / | 1.7%
33 | CCSc1n[nH]c2nc3c(c(=O)n12)C1(CCCC1)Cc1ccccc1-3 | i | / | -0.7%
34 | CN1CCN(S(=O)(=O)c2cccc(S(=O)(=O)c3cccc(S(=O)(=O)N4CCN(C)CC4)c3)c2)CC1 | i | / | 11%
35 | COc1cccc(-c2nnc(SCC(=O)N3CCCC3=O)n2-c2ccccc2)c1 | i | -0.52 | 0.9%
36 | CCOc1ccccc1C(=O)N1CCC(n2nnc3cc(C(F)(F)F)ccc32)CC1 | i | / | 0.5%
37 | O=C(CCS(=O)(=O)c1cccs1)N1CCN(c2ccc(F)cc2)CC1 | i | 1.1 | -4.6%
38 | COc1ccc2c(c1OC)C(=O)N(c1cccc(C)c1)C2 | i | -0.05 | 8.7%
39 | CC(C)(C)NC(=O)C1CCN(C(=O)c2ccc(Br)cc2)CC1 | i | 2.4 | -0.7%
40 | O=C(NCc1ccc2c(c1)OCO2)c1cc(-c2ccccc2)on1 | i | 1.7 | -0.5%
41 | CC(C)COC(=O)CNc1n[nH]c(=S)[nH]c1=O | i | / | 1.7%
42 | CCn1c(SCC(=O)Nc2cc(C)on2)nc2c1c(=O)n(C)c(=O)n2C | i | -0.8 | 5.0%
43 | CCOC(=O)N1CCC(NC(=O)c2cc(C(=O)NCc3cccc(Cl)c3)ccc2CO)CC1 | i | -0.14 | -3.6%
44 | Cc1nc2ccc(-c3nc4cc(N)ccc4o3)cc2[nH]1 | 3.7µM* | / | 2.3%
45 | O=C(O)CSCNC(=O)CC12CC3CC(CC(C3)C1)C2 | i | 0.8 | 3.8%
46 | O=C(NC(=S)NC1CCCCCCCCCCC1)c1cccnc1 | i | / | -1.3%
47 | Cc1cc2cc(CN(CCN3CCOCC3)C(=O)Nc3ccccc3F)c(=O)[nH]c2cc1C | i | -1.1 | -0.7%
48 | COc1ccc(C(=O)Nc2cc(C)on2)cc1 | i | 0.86 | 1.2%
49 | Cc1nn2c(NCCCN3CCOCC3)c3c(nc2c1-c1ccccc1)CCC3 | i | -0.1 | 1.2%
50 | O=C(NCC(c1cccnc1)N1CCOCC1)c1ccco1 (stereo unspecified) | i | -0.28 | -5.2%
51 | CN(C)c1ccc(C(=O)Nc2cc(C(F)(F)F)ccc2-n2cncn2)cc1 | i | / | -1.3%
52 | O=C(Cn1cnc2c(nnn2-c2ccc(F)cc2)c1=O)N1CCCc2ccccc21 | i | 0.96 | -1.5%
53 | CCCC(=O)Nc1cccc(NC(=O)CN2CCN(c3ccccc3OC)CC2)c1 | i | -0.84 | -6.0%
54 | CCOc1ccc(-c2csc(NC(=O)C3CCCO3)n2)cc1 (stereo unspecified) | i | -0.32 | 2.0%
55 | CCCCNC(=O)c1c(O)c2cccc3c2n(c1=O)CCC3 | i | 0.04 | -7.4%
56 | COc1ccc(C(NC(=O)CNC(C)=O)C(=O)Nc2ccc3c(c2)OCCO3)cc1 (stereo unspecified) | i | -0.67 | -4.7%
57 | c1ccc(OCc2nc3ccccc3s2)cc1 | i | -0.22 | -6.4%
58 | O=C(CCS(=O)(=O)c1cccc2nsnc12)N1CC(=O)N(CCc2ccccc2)C(=O)C1 | i | -0.03 | -2.6%
59 | CCOc1cc2[nH]c(=O)n(CCCCC(=O)NC3CCCCCC3)c(=O)c2cc1OCC | i | -0.54 | -4.4%
60 | Cc1c(C(=O)NCc2ccc3c(c2)OCO3)oc2ccc(S(=O)(=O)N3CCC(C)CC3)cc12 | i | / | 3.5%

Other entries follow:
No. | canonical_smiles | MT1-MMP promoter | WNV protease inh | Hsc70
61 | COc1cc(OC)c(OC)cc1/C=N/n1c(C)nnc1C | i | 1.8 | 1.2%
62 | O=S(=O)(c1ccc(Cl)cc1)N1c2ccccc2Oc2nc3ccccc3nc21 | i | / | 3.4%
63 | Cn1c(-c2c(N)n(C3CCCC3)c3nc4ccccc4nc23)nc2ccccc21 | i | 3 | 0.0%
64 | CS(C)(=O)=NS(=O)(=O)c1ccc(Cl)cc1 | i | -1.1 | 7.3%
65 | COc1ccc2cc(CN(Cc3ccco3)Cc3nnnn3C3CCCCC3)c(=O)[nH]c2c1 | i | -0.29 | -4.2%
66 | CCOC(=O)CCCNC(=O)CCNC(=O)c1ccc(OC(C)C)cc1 | i | 0.95 | -4.4%
67 | COc1ccc(CNn2c(C)nc3ccccc3c2=O)cc1 | i | -0.65 | 4.0%
68 | O=C1c2oc3ccccc3c(=O)c2C(c2cccnc2)N1Cc1ccco1 (stereo unspecified) | i | 0.92 | 6.2%
69 | COc1ccc(C)cc1NC(=O)CN1CCN(c2ccccc2F)CC1 | i | -0.91 | -14%
70 | Cc1cc(C)c(C)c(OCC(=O)N2CCOCC2)c1 | i | / | 1.2%
71 | Cn1c(=O)[nH]c(=O)c2c1nc(Br)n2Cc1ccccc1F | i | 0.37 | 6.9%
72 | O=C(c1ccco1)N1CCN(S(=O)(=O)c2cccc3nsnc23)CC1 | i | 0.53 | -7.4%
73 | CC12CN(S(=O)(=O)c3ccccc3)CC(C)(CN(S(=O)(=O)c3ccccc3)C1)C2 | i | / | 1.5%
74 | O=C(CCN1C(=O)c2ccccc2C1=O)Nc1ccc(S(=O)(=O)N2CCOCC2)cc1 | i | -1.3 | 2.8%
75 | CCOC(=O)c1ccc(NC(=O)CCn2nnc3ccccc32)cc1 | i | / | -3.6%

Random excerpt: 4 records from the list.
No. | canonical_smiles | MT1-MMP promoter | WNV protease inh | Hsc70
62 | O=S(=O)(c1ccc(Cl)cc1)N1c2ccccc2Oc2nc3ccccc3nc21 | i | / | 3.4%
63 | Cn1c(-c2c(N)n(C3CCCC3)c3nc4ccccc4nc23)nc2ccccc21 | i | 3 | 0.0%
72 | O=C(c1ccco1)N1CCN(S(=O)(=O)c2cccc3nsnc23)CC1 | i | 0.53 | -7.4%
69 | COc1ccc(C)cc1NC(=O)CN1CCN(c2ccccc2F)CC1 | i | -0.91 | -14%

(list continues)
No. | canonical_smiles | MT1-MMP promoter | WNV protease inh | Hsc70
76 | CC(=O)Nc1ccc(NC2=CC(=O)CC(C)(C)C2)cc1 | i | -0.41 | 2.9%
77 | Cc1nccn1-c1cc(C(C)C)c(C#N)c2nc3ccccc3n12 | i | 1.4 | 5.3%
78 | CCCC(C(=O)NCC1CCCO1)N(Cc1ccco1)C(=O)CNS(=O)(=O)c1ccccc1 (stereo unspecified) | i | 0.05 | 4.2%
79 | O=C(NCc1ccco1)c1cc2c(s1)CSC2 | i | -0.41 | 4.9%
80 | O=S(=O)(NCC1CCCO1)c1cccc2nsnc12 (stereo unspecified) | i | -0.24 | -4.7%
81 | Cc1ccc2c(=O)cc(C(F)F)oc2c1 | i | / | 10%
82 | CC(=O)c1c(C(C)=O)c(C)n(NC(=O)c2ccccc2Cl)c1C | i | / | 2.4%
83 | COc1ccc2cc(CCNC(=O)c3ccc4c(c3)OCO4)c(=O)[nH]c2c1 | i | -1.1 | 6.3%
84 | Cc1csc(NC(=O)CSc2nnc(Cn3c(=O)sc4ccccc43)n2-c2ccccc2)n1 | i | 0.31 | -4.8%
85 | COc1cccc(CNc2ccc(N3CCC(C)CC3)cc2)c1OC | i | / | 4.4%
86 | COc1ccc(-c2csc(Cc3nnc(N4CCOCC4)n3-c3ccccc3)n2)cc1 | i | -0.52 | -1.0%
87 | COc1ccc(CN(C(=O)c2cnccn2)C(C(=O)Nc2ccc(F)cc2)c2ccccc2)cc1 (stereo unspecified) | i | / | 3.2%
88 | COc1ccc(CC(=O)Nc2c3c(nn2-c2cccc(Cl)c2)CS(=O)C3)cc1 (stereo unspecified) | i | 0.19 | -5.0%
89 | CC(C(=O)Oc1ccc2c(c1)OCO2)N1C(=O)c2ccccc2C1=O (stereo unspecified) | i | 2.4 | -3.0%
90 | Cc1ccc2nc(NC(=O)Cc3cccs3)sc2c1 | i | / | 5.4%
91 | Cn1c(C(=O)NCCN2CCN(c3ccccc3F)CC2)cc2c(=O)n(C)c3ccccc3c21 | i | -0.31 | -2.7%
92 | CCOC(=O)c1sc(NC(=O)CSc2nnnn2-c2ccc(C)cc2)c(C(=O)OCC)c1C | i | 0.16 | -22%
93 | Cc1sc2nnn(CC(=O)N3CCN(C(=O)c4ccco4)CC3)c(=O)c2c1C | i | 0.45 | -7.1%
94 | COc1ccccc1CNC(=O)C(=O)NCC1CCCO1 (stereo unspecified) | i | / | 2.5%
95 | Cc1cc(NC(=O)CSc2c(C)[nH]c3ccccc23)no1 | i | -0.44 | -0.3%
96 | Cc1nc2cncc(Br)c2n1C | i | -0.36 | 0.7%
97 | O=S(=O)(Nc1ncccn1)c1ccc(Nc2ncnc3ccccc23)cc1 | i | -0.24 | 3.9%
98 | CC(C)Oc1ccc(C(=O)NCc2ccco2)cc1 | i | -0.75 | 5.7%
99 | COc1ccc(OC)c(S(=O)(=O)Nc2ccc(F)cc2)c1 | i | / | -0.4%
100 | Cc1c(Cl)cccc1N1C(=O)c2ccccc2C1=O | i | 0.64 | 5.2%
101 | O=C(NC1CCCCCCC1)C1CCN(S(=O)(=O)N2CCCC2)CC1 | i | -0.29 | -1.0%
102 | CCOC(=O)C1=NNC2C(=O)N(C3CCCCC3)C(=O)C12 (stereo unspecified) | i | / | 3.9%
103 | Cc1ccc(N2C(=O)Nc3ccc(Br)cc3C2(O)C(=O)NCCCN(C)C)cc1C (stereo unspecified) | i | 0.31 | -0.1%
104 | CC1CN(C(=O)c2cn3ccccc3n2)CC(C)O1 (stereo unspecified) | i | -0.74 | 2.2%
105 | CN(C)S(=O)(=O)c1cccc(C(=O)NCc2cccs2)c1 | i | / | 3.7%
106 | Cc1ccc(NC(=O)CSc2nc3ccccc3c(=O)n2CCCN2CCCCC2)cc1C | i | / | -1.2%
107 | C=CCn1c(=N)n(CC(O)COc2ccccc2OC)c2ccccc21 (stereo unspecified) | i | -0.26 | -0.1%
